# Screens as filed in PubChem BioAssay.
# Vaccinia mCherry = qHTS for Stage-Specific Inhibitors of Vaccinia Orthopoxvirus: mCherry Reporter Primary qHTS | Potency, µM (titrated, usually from 36.5 µM), for the others: at the top dose activity change, negative = inhibition, most hits filed as inhibitors | AID 720579, 2013 | Vaccinia virus mCherry reporter infection, fluorescence; about a quarter of the inactives have no number | 0.63% of 310,000 active; active = well fitted inhibition curve with a large enough effect; inconclusive = small, poorly fitted or top-dose-only effect; inactive = no such curve, though single readings can be large or run the other way; tested in A549 cells; also: nearly all actives have a fitted effect of over 35% in size; inactives centre near -10
# VACV Venus inh = qHTS for Stage-Specific Inhibitors of Vaccinia Orthopoxvirus: Venus Reporter Primary qHTS | Vaccinia virus Venus reporter expression, fluorescence | AID 720580, 2013 | Potency, µM (doses to about 36.5 µM), for the others: at the highest dose activity change, negative = inhibition, actives largely listed as inhibitors | 0.46% of 330,000 active; active means well fitted inhibition curve with a large enough effect; inconclusive means small, poorly fitted or top-dose-only effect; inactive means no such curve, though single readings can be large or run the other way; tested in A549 cells; also: nearly all actives have a fitted effect of over 30% in size; inactives centre near -10
# An asterisk follows results filed as active; i = inactive; ? = inconclusive; · = not tested or not shown; [ ] = dose if it differs, or a comment. % is scaled to controls: 0 for no effect and ±100 for the full control effect; potency is read from the fitted curve at half-maximal effect. Compounds were not picked by outcome. Share with any hit: about 0.82%.
[1] Cc1noc(C)c1S(=O)(=O)Nc1ccc2c(c1)C(=O)N([C@H](C)CO)C[C@H](C)[C@@H](CN(C)C(=O)Nc1ccc(C(F)(F)F)cc1)O2
[2] O=C(NCc1ccc(F)cc1)c1cc2cccc3c2n1CCS3
[3] COc1ccc(C(=O)Nc2nc(N3C(=O)c4ccccc4C3=O)n(-c3ccccc3)n2)cc1
[4] COc1cccc(CNC(=O)CSc2n[nH]c(-c3ccccc3Cl)n2)c1OC
[5] CCCCNC(=O)C[C@@H]1C[C@@]2(C(=O)OC)CCCCC=C2N(Cc2ccc(Cl)cc2Cl)C1=O
[6] OCCCCCN=c1cc(-c2ccccc2)oc2ccc(Cl)cc12
[7] CN1CCc2c(c(N3CCCCC3)nc3n[nH]c(N)c23)C1
[8] COc1cc(/C=N/n2cnnc2)ccc1OCCOc1ccccc1

screen / no.,1,2,3,4,5,6,7,8
Vaccinia mCherry,-24%,11%,i,i,i,-29%,-13%,·
VACV Venus inh,-21%,13%,-8%,-18%,1%,?,-18%,-6%

[9] O=C(CSc1nc(C(F)(F)F)cc(=O)[nH]1)Nc1cccc2ccccc12
[10] COc1cc(O)c(C(CCN2CCOCC2)c2ccc(N(C)C)cc2)c(OC)c1 (configuration not stated)
[11] COc1ccc(/C=C/C(=O)OCC(=O)NCCNC(=O)COC(=O)/C=C/c2ccc(OC)cc2)cc1
[12] Cc1ccc(S(=O)(=O)N2CCCOC2CNC(=O)C(=O)NC2CCCCC2)cc1 (configuration not stated)
[13] CCOc1ccc(C2C(C(=O)Nc3ccccc3)=C(C)Nc3nc(SCc4cc(C)ccc4C)nn32)cc1 (configuration not stated)
[14] CCC(C)[C@H](NC(=O)NC(C)C)C(=O)O (some centres not stated)
[15] CCCC(CCC)c1nc2ccncc2[nH]1
[16] CCOC(=O)N1CCc2c(sc(NC(=O)CN(CC)CC)c2C#N)C1

screen / no.,9,10,11,12,13,14,15,16
Vaccinia mCherry,-15%,?,i,i,1%,i,i,i
VACV Venus inh,-7%,-14%,-7%,-1%,-10%,-2%,-6%,-2%

[17] Cc1ccc(Cl)cc1NC(=O)Cn1c(=O)c2ccccc2n2nncc12
[18] COc1ccccc1C(=O)Nc1c(-c2ccccc2)nc2ccccn12
[19] COc1ccc(C(=O)N2CCN(C3CCCCC3)CC2)c(OC)c1
[20] CC(O)(c1cccnc1)c1nc(-c2cccc(C(F)(F)F)c2)cs1 (configuration not stated)
[21] Cc1c(C(=O)NCc2ccc3c(c2)OCO3)sc2nc(-c3ccc(F)cc3)cn12
[22] CC(Oc1ccc(Cl)cc1)C(=O)NCCN1C(=O)S/C(=C\c2cccnc2)C1=O (configuration not stated)
[23] O=C(Cn1nc(-c2ccccc2)ccc1=O)NCCN1CCN(Cc2ccccc2)CC1
[24] O=C(Nc1ccc(OC(F)(F)F)cc1)c1ccc2ccccc2n1

screen / no.,17,18,19,20,21,22,23,24
Vaccinia mCherry,-3%,i,-7%,39%[activator],i,-29%,-2%,i
VACV Venus inh,4%,0%,-8%,-10%,-14%,-10%,0%,-1%

[25] Cc1n[nH]c(=O)nc1NCc1ccc(Cl)cc1
[26] CC(C)CNC(=O)c1c(-c2ccccc2)c(-c2ccccc2)nn(C)c1=O
[27] CC(CS(=O)(=O)c1ccc2c(c1)NC(=O)CS2)C(=O)NCc1ccccc1Cl (configuration not stated)
[28] Cc1cc(NC(=O)COC(=O)[C@@H](NS(=O)(=O)c2ccc(Br)cc2)C(C)C)no1
[29] CCN1CCc2c(OCC(=O)Nc3ccc(C)cc3)cccc2C1=O
[30] COc1ccccc1CNC(=O)CSc1ncc2c(n1)-c1ccc(Cl)cc1N(Cc1ccccc1)S2(=O)=O
[31] COc1cc(C)c(Cl)cc1S(=O)(=O)N1CCCC1
[32] CS(=O)(=O)N1CCN(c2ccccc2NC(=O)c2cccnc2)CC1

screen / no.,25,26,27,28,29,30,31,32
Vaccinia mCherry,-24%,-7%,-9%,-17%,i,-12%[7.34 µM],i,·
VACV Venus inh,-14%,-6%,-17%,-6%,-2%,-7%[7.34 µM],-6%,-9%

# Record cards (already shown). Order of values: Vaccinia mCherry	VACV Venus inh
# Shown for `CCN1CCc2c(OCC(=O)Nc3ccc(C)cc3)cccc2C1=O` = i	-2%
# Shown for `O=C(Cn1nc(-c2ccccc2)ccc1=O)NCCN1CCN(Cc2ccccc2)CC1` = -2%	0%
# Shown for `CN1CCc2c(c(N3CCCCC3)nc3n[nH]c(N)c23)C1` = -13%	-18%
# Shown for `OCCCCCN=c1cc(-c2ccccc2)oc2ccc(Cl)cc12` = -29%	?
# Shown for `O=C(Nc1ccc(OC(F)(F)F)cc1)c1ccc2ccccc2n1` = i	-1%

# More results.
[33] CC(C)(C)n1cn[nH]c1=S
[34] Cn1c(-c2ccc(CN3CCCCC3)o2)nc2ccccc21
[35] O=C(O)c1ccc2c(c1)S(=O)(=O)N=C1CCCCCN12
[36] OCCNCC(O)CN1c2ccccc2Sc2ccccc21 (configuration not stated)
[37] COc1ccc2nc(N3C(=O)CC(C(C)c4ccccc4)C3=O)sc2c1 (configuration not stated)
[38] Ic1ccc(Nc2nc(NCCN3CCOCC3)nc(N3CCOCC3)n2)cc1
[39] COc1ccc(-c2csc(NC(=S)NC(=O)c3ccccc3)n2)cc1Br
[40] COCc1nnc(NC(=O)CC(c2ccccc2)c2ccccc2)s1

screen / no.,33,34,35,36,37,38,39,40
Vaccinia mCherry,3%,·,i,?,-9%,?,-15%,-14%[1.46 µM]
VACV Venus inh,0%,2%,-12%,-18%,-13%,-29%,-1%,-20%

[41] COc1ccccc1C(=O)NNC(=O)c1ccc(NC(=O)c2ccccc2)cc1
[42] CC(C)Cc1nnc(NC(=O)Cc2ccc([N+](=O)[O-])cc2)s1
[43] COC(=O)c1c(NC(=O)c2ccccc2[N+](=O)[O-])sc2c1CC(C)(C)NC2(C)C
[44] NC(=O)c1cc(C(=O)c2ccc(Cl)cc2Cl)c[nH]1
[45] CCn1c(=O)c(C(=O)NNC(=O)c2ccccc2Cl)c(O)c2ccccc21
[46] NC(CSC(c1ccccc1)(c1ccccc1)c1ccc(-c2ccccc2)cc1)C(=O)O (configuration not stated)
[47] COC(=O)c1cc(=O)n(-c2ccc(F)cc2)c(=Nc2ccc(F)cc2)s1
[48] CS(=O)(=O)c1ccc(Cl)c(NC(=O)CSc2nnc3n2CCCCC3)c1

screen / no.,41,42,43,44,45,46,47,48
Vaccinia mCherry,-5%,-13%,-8%,-10%,-23%,-8%,?,0%
VACV Venus inh,-10%,-10%,-18%,-12%,-7%,-6%,?,-10%

[49] CCOC(=O)C1=C(c2ccccc2)Nc2ncnn2C1c1ccc(OC)c(OC)c1OC (configuration not stated)
[50] CCC(=O)c1ccc(OCC(=O)OCC(=O)Nc2sccc2C(N)=O)cc1
[51] CCn1c2ccccc2c2nnc(SCC(=O)N(C)C3CCS(=O)(=O)C3)nc21 (configuration not stated)
[52] O=C(O)C1CCN(Cc2oc(CO)cc(=O)c2O)C1 (configuration not stated)
[53] O=C(CSc1nnnn1Cc1ccccc1)Nc1ccc2c(c1)OCO2
[54] CCOC(=O)c1c(C)nc2ccc(C)cn12
[55] CCOC(=O)c1sc(N=NC2=C(O)CCCC2=O)c(C(=O)OCC)c1C
[56] O=C(Nc1cccc(F)c1)C1CCN(C(=O)c2ccc(Cl)cc2)CC1

screen / no.,49,50,51,52,53,54,55,56
Vaccinia mCherry,i,i,-13%,?,-8%,·,-4%,-1%
VACV Venus inh,-10%,-13%,-9%,-6%,-4%,-24%,-20%,-23%

[57] CCCCNC(=S)N(CCCO)Cc1cc2cc3c(cc2[nH]c1=O)OCO3
[58] CCCn1cc(NC(=O)C2CC(c3cccc(Br)c3)=NO2)cn1 (configuration not stated)
[59] CCOc1ccc(NC(=O)Cn2c(=O)n(CCC(=O)NCCc3ccccc3)c(=O)c3ccccc32)cc1
[60] CCOC(=O)C1(Cc2cccc(OC)c2)CCN(C/C=C/c2ccc(OC)cc2)CC1
[61] CN(C)CCN(C(=O)c1ccc(S(=O)(=O)N2CCCC2)cc1)c1nc2ccc(Br)cc2s1
[62] Cc1oc(-c2ccc(Cl)cc2)cc1-c1nn2c(-c3ccoc3C)nnc2s1
[63] CC(=O)N1CC=CC1(C)C(=O)NCc1cc(F)cc(C(F)(F)F)c1 (configuration not stated)
[64] CCCCCn1c(N2CCC(Cc3ccccc3)CC2)nc2c1c(=O)[nH]c(=O)n2C

screen / no.,57,58,59,60,61,62,63,64
Vaccinia mCherry,-21%,-18%,-12%,-21%,i,-12%,-6%,0%
VACV Venus inh,0%,-7%,-5%,-13%,-11%,1%,-9%,-16%

[65] CCC(CO)Oc1cc(NCc2ccc(Cl)cc2)c2ncn(C(C)C)c2c1 (configuration not stated)
[66] O=c1c(Cc2ccc(F)cc2)c(O)ccn1C1CC1
[67] CCN(CC)C(C(=O)Nc1ccc2c(c1)OCO2)c1ccccc1 (configuration not stated)
[68] COC(=O)CCCC1=CC2=CC(=O)C(C)(OC(=O)C3CCCC3)C(=O)C2=CO1 (configuration not stated)
[69] CCOc1ccc(C(=O)N[C@H](C(=O)Nc2ccc(S(=O)(=O)Nc3nccs3)cc2)C(C)C)cc1
[70] CC(=O)Nc1cc2c(cc1NC(=O)Cn1nc(-c3ccc4c(c3)OCCO4)ccc1=O)OCCO2
[71] O=[N+]([O-])c1cccc(Oc2ncccc2[N+](=O)[O-])c1
[72] O=c1nc2scc(-c3ccccc3)n2c2ccccc12

screen / no.,65,66,67,68,69,70,71,72
Vaccinia mCherry,-24%,i,i,-14%,i,·,0%,i
VACV Venus inh,-19%,-19%,-14%,9%,-12%,-13%,-7%,-4%

[73] Cc1ccc([C@@H]2CC=C(C(=O)O)[C@H](c3ccc(C(C)(C)C)cc3)N2S(=O)(=O)c2ccc(C)cc2)cc1
[74] COc1ccc(S(=O)(=O)Nc2cccc(-c3ccc(N4CCCCC4)nn3)c2)cc1F
[75] Cc1cccc(C2Nc3ccccc3C(=O)N2CCc2ccccc2)n1 (configuration not stated)
[76] O=C(N=C1SC2CS(=O)(=O)CC2N1c1ccc(OC(F)(F)F)cc1)C1CC1 (configuration not stated)
[77] Cc1ccc(NC(=O)CSc2nncn3c2cc2sccc23)cc1F
[78] CC(C)NC(=O)c1ccc(CNC(=O)OCC(F)(F)F)cc1
[79] COc1ccc(OCC(=O)N2CCN(C(=O)COc3ccccc3)CC2)cc1
[80] O=C(CCNC(=O)c1ccc(Cl)cc1)Nc1ccccc1N1CCCC1

screen / no.,73,74,75,76,77,78,79,80
Vaccinia mCherry,-6%,-23%,14%,-18%,-23%,i,-11%,-20%
VACV Venus inh,?,-20%,21%,-4%,-14%,-13%,-10%,-2%

[81] Cc1ccnc2nc(C(=O)OCC(=O)c3c[nH]c4ccccc34)nn12
[82] COc1ccc(-c2noc(COc3ccc(Cl)c(C)c3)n2)cc1
[83] O=c1c2sc3ccccc3c2n(Cc2cccc(C(F)(F)F)c2)c(=O)n1Cc1ccccc1
[84] CCOc1cc(C=C2C(=O)c3ccccc3C2=O)ccc1OCC(=O)Nc1ccc(C)cc1
[85] CSCC(=O)NS(=O)(=O)c1ccc(C)cc1
[86] CC(=O)c1ccc(NC(=O)C(C)Sc2nnc(-c3ccncc3)n2C2CC2)cc1 (configuration not stated)
[87] COc1ccc(NC(=O)C(NC(=O)/C=C\c2ccc3c(c2)OCO3)c2ccc(OC)cc2)cc1 (configuration not stated)

screen / no.,81,82,83,84,85,86,87
Vaccinia mCherry,0%,23%,-3%,-10%,-7%,-20%,-9%
VACV Venus inh,-11%,-15%,-3%,-2%,-5%,-10%,-10%

# Reformatted bar-delimited: entries from further up
item | mol | Vaccinia mCherry | VACV Venus inh
85 | CSCC(=O)NS(=O)(=O)c1ccc(C)cc1 | -7% | -5%
86 | CC(=O)c1ccc(NC(=O)C(C)Sc2nnc(-c3ccncc3)n2C2CC2)cc1 (configuration not stated) | -20% | -10%
87 | COc1ccc(NC(=O)C(NC(=O)/C=C\c2ccc3c(c2)OCO3)c2ccc(OC)cc2)cc1 (configuration not stated) | -9% | -10%
